Screens deposited in PubChem by several laboratories.
RN4220 kill: kills Staphylococcus aureus RN4220; S. aureus RN4220 growth, OD600, 16 h; inhibition, % (test concentration not listed); 0.33% of 330,000 active;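 active means z-score of -3 or lower and OD600 up to 0.18 on both plates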;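 further: plate controls were untreated cells for no effect and reference antibiotic for full effect; stock transfer was 100 nL into about 80 µL; one replicate is shown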
PrP 5UTR inh: inhibition of PrP 5' UTR reporter expression; cell-based PrP 5' UTR mRNA reporter, plate reader; inhibition, % (no concentration beside the values); 0.35% of 340,000 active;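 active means every replicate at 50% or more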;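 further: 0 = median of the neutral control wells; tested in H4 reporter cells; numbers are from one replicate; inactives centre near -14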
BJeLR viability: kills HRASV12-expressing BJeLR cells | BJeLR (HRASV12) viability, CellTiter-Glo ATP luminescence, 48 h; reference of the scale not given here | inhibition, % (test concentration not listed) | 0.17% of 300,000 active;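 active means replicate mean above 50%; inconclusive means above 50% but judged a plate artefact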;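 further: 50 nL library stock added to about 25 µL; numbers are from one replicate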
Sa ugtP lethal: growth inhibition of S. aureus ugtP deletion strain; S. aureus RN4220 ugtP deletion, OD600 growth, 16 h; some inactives read as strong as hits; growth inhibition, % (no concentration beside the values); 0.54% of 330,000 active; AID 1259309;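 active means z-score under -3 and OD600 up to 0.15 on both plates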;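 further: plate controls were untreated wells for no effect and antibiotic for full effect; wells of about 80 µL received 100 nL stock; the first replicate is given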
Mtb hypoxia rep: inhibitors of hypoxia-regulated fluorescent reporter in Mycobacterium tuberculosis; M. tuberculosis hypoxia-regulated fluorescent reporter, fluorescence; fluorescence inhibition, % (test concentration not listed); 0.1% of 300,000 active;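 active means 35 to 45% if threefold the growth effect, above 45% if 1.5-fold the growth effect; inactive means the rest, general growth blockers included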;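 further: wells of about 50 µL received 100 nL stock; 0% = vehicle wells and 100% = reference inhibitor wells; whole bacteria with a GFP reporter of the hypoxia response; strong numbers were not always called active; many hits fall short of the cut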
Bead autofluor: counter-screen for toxin protease inhibitors: compound fluorescence. compound autofluorescence counterscreen, microsphere flow cytometry; hits give high values. fluorescence intensity (concentration not given with the values). 3.1% of 360,000 active. AID 624483;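 active means at least 3 SD above the mean of all compounds, about 16000 in these data; inconclusive means too few beads counted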;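 further: 100 nL of 1 mM stock went into each well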
Mtb hypoxia rep growth: further read-out of Mtb hypoxia rep, marked with its call; growth inhibition, %; measured here: M. tuberculosis growth (absorbance);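 0% = vehicle and 100% = reference antibiotic; read after six days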
An asterisk follows results filed as active; ? = inconclusive; nt = not tested or not shown; & = joins results of further samples.

SMILES | RN4220 kill | PrP 5UTR inh | BJeLR viability | Sa ugtP lethal | Mtb hypoxia rep | Mtb hypoxia rep growth | Bead autofluor
O=C(CN(Cc1ccccc1)S(=O)(=O)c1ccccc1)N/N=C/c1ccccc1C(=O)O | nt | -13.0 | -0.2 | nt | nt | nt | 2010
Cc1sc(NC(=O)COc2ccccc2)c(C#N)c1-c1ccccc1 | -0.4 | -37.1 | 1.2 | 8.1 | 1.8 | 7.0 | 7324
COC(=O)C1=C(c2ccc(S(C)(=O)=O)cc2)C[C@@H]2CC[C@H]1N2C(=O)NC1CC1 | nt | -24.2 | -3.9 | nt | nt | nt | 3571
CCOC(=O)N1CCC(NC(=O)Cn2cc3c(n2)CCC(C)C3)CC1 (centres undefined) | -10.7 | -14.0 | 5.6 | -8.6 | 6.7 | 6.6 | 2906
Cc1ccc(C=NNc2nc(C(C)(C)C)cs2)o1 | -14.4 | nt | nt | -23.7 | -13.2 | 1.8 | nt
COc1ccc(CC(=O)NC(=S)NNC(=O)COc2c(C)cccc2C)cc1 | 61.2 | -24.4 | -0.2 | 35.0 | 3.4 | 8.8 | 2533
O=C1NN=C(c2ccc(Cl)cc2)CC1c1cccc(Cl)c1 (centres undefined) | 3.0 | -19.6 | -2.0 | -19.8 | nt | nt | 2450
O=C(CSc1ccsc1[N+](=O)[O-])NCc1ccco1 | 0.5 | -18.5 | 0.2 | -13.1 | 4.4 | 3.4 | 2040
CN(C(=O)c1cccc(NC(=O)Cc2ccc(NC(=O)C3CCN(C(=O)C4CCCC4)CC3)cc2)c1)C1CCC1 | 5.0 | -3.8 | nt | -0.4 | -1.4 | -1.7 | 2741
O=C(CSc1nnc(Nc2ccccc2)s1)NC1CCS(=O)(=O)C1 (centres undefined) | 2.3 | -4.5 | nt | 4.6 | 4.7 | 2.4 | 4083
C#CCNC(=O)C1=CC(c2coc3ccccc3c2=O)CC(OCc2ccc(CO)cc2)O1 (centres undefined) | -0.4&5.9 | nt | nt | -1.6&0.2 | 9.2&11.0 | 6.3&5.4 | nt
CCOC(=O)C[C@H]1c2ccccc2S(=O)(=O)N1c1ccccc1 | nt | -13.7 | 7.7 | nt | nt | nt | 3747
COC(=O)c1cccc(C23CC4(C2)[C@H](CN(C)[C@@H]4c2ccccc2)C3c2ccccc2)c1 (some centres undefined) | nt | -5.1 | 4.9 | nt | nt | nt | 4950
CCCCn1c(=O)[nH]c(=O)c2c1nc(-c1ccccn1)n2CC | 1.4 | -18.3 | -8.0 | 10.9 | 0.9 | 3.6 | 4990
Nc1nonc1C(=O)NCCNc1ccc([N+](=O)[O-])cn1 | nt | -23.5 | 4.2 | nt | nt | nt | 4264
COc1ccc([C@H]2C=C3CN(C(=O)OC(C)(C)C)S(=O)(=O)[C@H]3C[C@H]2OC(=O)c2ccc(C(F)(F)F)cc2)cc1 | nt | -10.4 | 2.5 | nt | nt | nt | 3923
O=c1cc(/C=C/c2c(F)cccc2Cl)[nH]c2ccccc12 | -0.9 | -124.3 | 17.3 | -4.8 | 2.0 | 4.9 | 2026
CC(C)(C)c1ccc(C(=O)Nc2ccc(CN3CCS(=O)(=O)CC3)cc2)cc1 | 6.1 | -11.7 | 10.9 | 4.3 | 4.7 | 4.5 | ?
COc1ccc(N(CC(=O)Nc2ccccc2SC)S(C)(=O)=O)cc1OC | 7.5 | -20.3 | -28.2 | -10.7 | 16.4 | 3.7 | 9360
O=C1NC(c2ccccc2)=NC1(NS(=O)(=O)c1ccc(Cl)cc1)C(F)(F)F (centres undefined) | 4.3 | -8.9 | 5.0 | -8.7 | 14.9 | -0.3 | 2105
COc1cccc(CN(C)C(=S)Nc2ccc(C)c(C)c2)c1 | 2.4 | -4.1 | -3.8 | 5.0 | 10.7 | 4.8 | 4841
CCC(Sc1nc2ncccc2[nH]1)C(=O)NC1CCCC1 (centres undefined) | 0.5 | -0.6 | 11.2 | 2.5 | -0.1 | -10.2 | 5953
CCNC(=O)/C(=C\C=C\c1ccccc1)NC(=O)c1ccc(Br)o1 | -3.9 | -23.8 | 1.7 | -6.8 | -1.3 | -7.9 | 2362
COc1cc2cnc(-c3ccccc3F)cc2cc1OC | 13.4 | -6.1 | nt | -14.4 | 13.2 | 16.1 | 2813
CCCCCCCCCCS(=O)(=O)N/N=C/c1ccccc1OC | nt | -25.1 | -0.6 | nt | nt | nt | 2490
Other structures follow:
SMILES | RN4220 kill | PrP 5UTR inh | BJeLR viability | Sa ugtP lethal | Mtb hypoxia rep | Mtb hypoxia rep growth | Bead autofluor
OC1(c2ccc(F)cc2)CC2CCC(C1)N2Cc1nnnn1C1CCCCC1 (centres undefined) | 1.1 | -24.1 | -7.0 | -1.2 | 8.4 | 4.6 | 7761
CCOC(=O)NC(NC(=S)Nc1ccc(OC)cc1)C(Cl)(Cl)Cl (centres undefined) | 2.5 | -19.6 | 3.5 | -3.8 | 4.0 | 3.6 | 1994
COC(=O)c1ccccc1NC(=O)c1ccccc1SC | -8.3 | -15.5 | -8.7 | 4.2 | 14.2 | 4.3 | 2548
Nc1ccc(C#Cc2ccc3sc4ccccc4c(=O)c3c2)cc1 | -7.9 | -44.7 | 5.5 | 11.4 | 0.0 | -1.5 | 3833
Cc1cc(C)cc(NC(=O)CSc2nnc(CNC(=O)c3ccco3)n2C)c1 | 0.1 | -4.4 | nt | 2.2 | 12.9 | 0.1 | 5310
CCN(CC)c1ccc([N+](=O)[O-])cc1C=NNC(=O)CC#N | -2.3 | nt | nt | -1.0 | -1.6 | 1.9 | nt
CCOc1cc2[nH]c(=O)n(CC3CCC(C(=O)NCCC(C)C)CC3)c(=O)c2cc1OCC (centres undefined) | 9.8 | -6.7 | nt | 10.8 | 13.1 | -2.6 | 5119
COc1cccc(N2C(=O)CC(N3CCc4ccccc43)C2=O)c1 (centres undefined) | 4.6 | -21.0 | -8.9 | -5.2 | -2.1 | 10.2 | 9052
CC(C)C(NC(=O)OCc1ccccc1)C(=O)NCC(=O)OC(C)(C)C (centres undefined) | 0.5 | 2.9 | -5.4 | -0.7 | nt | nt | 2416
CCNC(=S)NC1CC2CCCC(C1)N2Cc1ccco1 (centres undefined) | 4.7 | -7.1 | 5.2 | -3.4 | 11.9 | 7.6 | 10662
O=C1c2cc([N+](=O)[O-])cc3cc([N+](=O)[O-])cc(c23)C(=O)N1c1ccccn1 | 4.3 | -6.2 | 33.6 | 14.1 | 13.8 | -8.1 | 7764
CC(C)(C)C(=O)NNC(=O)C1CC1(c1ccccc1)c1ccccc1 (centres undefined) | 4.6 | -0.4 | -9.0 | 6.7 | -5.0 | -2.5 | 4223
Cc1cccc(C)c1Nc1c(-c2ccsc2)nc2ncccn12 | 4.2 | -10.3 | 4.6 | -4.3 | -1.1 | -2.1 | 10551
CCC(=O)NCCSc1c[nH]c2ccccc12 | -0.7 | -3.6 | -1.3 | -11.5 | nt | nt | 2320
OCC#Cc1ncc(C(F)(F)F)cc1Cl | 6.2 | -5.1 | -7.2 | 3.2 | -5.2 | 2.9 | 4281
CCCN1C(=O)c2cc(C(=O)Nc3ccccc3OC)ccc2C1Nc1ccccc1OC (centres undefined) | 1.1 | -7.4 | 10.8 | 7.2 | 3.6 | 6.9 | 5943
COc1ccc(N2CCCn3c2nc2c3c(=O)n(CCc3ccccc3)c(=O)n2C)cc1 | 5.0 | -11.7 | -1.2 | -3.5 | 1.8 | -1.3 | nt
O=C(c1cccc(S(=O)(=O)NCc2ccccc2)c1)N1CCN(c2ccccc2)CC1 | 2.8 | -21.0 | nt | -3.2 | -0.8 | 7.6 | 8155
CC(C(=O)O)N1C(=O)CSC1=S (centres undefined) | 6.0 | -17.5 | 1.1 | 8.8 | nt | nt | 4895
Cc1cc(C)n(-c2ccc(C(=O)OCC(=O)NC(c3ccccc3)c3ccccc3)cc2)n1 | 3.0 | -1.2 | 7.3 | 10.1 | 6.8 | 0.0 | 2515
CCOc1ccccc1Nc1ccc(C(=O)O)cc1[N+](=O)[O-] | 1.6 | -7.8 | -1.0 | 5.5 | 12.5 | 0.2 | 3389
Cn1nc(C(F)(F)F)c(C=NOC(=O)c2ccccc2)c1SCc1ccc(Cl)cc1 | 0.9 | nt | nt | -2.8 | 9.0 | 9.0 | nt
CCOC(=O)c1c(NC(=O)C(NCCN(C)C)c2ccccc2)sc2c1CCCC2 (centres undefined) | 1.8 | -0.5 | 2.6 | -17.8 | 21.9 | 3.6 | 4787
Cc1ccc(C(=O)NC(C)c2ccc3c(c2)OCO3)s1 (centres undefined) | 1.9 | -33.4 | -1.2 | 2.3 | nt | nt | 4079
Cn1c(=O)c(=O)n(C)c2cc(N3CCCC3)c(NS(=O)(=O)c3ccc(Cl)cc3)cc21 | 4.2 | -23.1 | -15.3 | 3.7 | 3.6 | 6.9 | 5238

3 compounds drawn at random from those above, as already listed:
SMILES | RN4220 kill | PrP 5UTR inh | BJeLR viability | Sa ugtP lethal | Mtb hypoxia rep | Mtb hypoxia rep growth | Bead autofluor
COc1cccc(N2C(=O)CC(N3CCc4ccccc43)C2=O)c1 (centres undefined) | 4.6 | -21.0 | -8.9 | -5.2 | -2.1 | 10.2 | 9052
CCOc1ccccc1Nc1ccc(C(=O)O)cc1[N+](=O)[O-] | 1.6 | -7.8 | -1.0 | 5.5 | 12.5 | 0.2 | 3389
CCC(=O)NCCSc1c[nH]c2ccccc12 | -0.7 | -3.6 | -1.3 | -11.5 | nt | nt | 2320

New compounds follow:
SMILES | RN4220 kill | PrP 5UTR inh | BJeLR viability | Sa ugtP lethal | Mtb hypoxia rep | Mtb hypoxia rep growth | Bead autofluor
COC(=O)C1=C(c2ccccc2OCc2ccccc2)C[C@@H]2CC[C@H]1N2C(=O)NCc1ccc(N(C)C)cc1 | -0.4 | -9.1 | nt | 8.8 | -11.2 | -1.4 | 3879
COc1ccc(-n2c(C)cc(C(=O)COC(=O)c3cc(NC(=O)c4cccs4)c(OC)c(OC)c3)c2C)cc1 | 8.0 | -29.0 | 0.7 | -3.6 | 3.1 | 7.4 | 2437
Cc1cc(C)c2c(=O)n(CC(=O)Nc3cccc(Cl)c3C)sc2n1 | 3.3 | -21.6 | 15.6 | 3.0 | 5.2 | 1.5 | 3362
CNC(=O)C(=O)N/N=C/c1ccc(Br)cc1 | nt | -21.6 | -0.8 | nt | nt | nt | 4376
COc1ccc(-c2nnc(NC(=O)CSc3ccc(C)cc3)s2)cc1OC | 3.6 | -1.2 | -1.6 | 0.7 | 4.8 | -0.4 | 2555
CC1(OC(=O)C2CCCC2)C(=O)C=C2C=C(c3ccsc3)N(Cc3ccc4c(c3)OCO4)C=C2C1=O (centres undefined) | 5.5 | -19.4 | 4.6 | -0.8 | 15.9 | 10.9 | 3082
COc1ccc2c(c1OC)C(=O)N(c1ccc(C)cc1)C2=O | 6.0 | -32.9 | -1.4 | 2.5 | 10.0 | -4.5 | 4125
COC(=O)c1cc(S(=O)(=O)NCc2cc(OC)c(OC)c(OC)c2)cn1C | 2.0 | -16.9 | 5.7 | 4.1 | -0.1 | -0.8 | 5865
Cc1cc(C)c2cc(C(c3nnnn3CC3CCCO3)N3CCN4CCCC4C3)c(=O)[nH]c2c1 (centres undefined) | -1.0 | -14.6 | -4.3 | -7.8 | -0.1 | 3.8 | 5035
O=C(NCc1n[nH]c(=S)n1-c1ccccc1)c1ccc(S(=O)(=O)N2CCCCC2)cc1 | 2.8 | -17.0 | -1.1 | 4.7 | 2.9 | 3.2 | 2157
CC(=O)CCN1CCOCC1 | 1.2 | -12.2 | -1.5 | 0.3 | 17.6 | 8.3 | 6331
CCOC(=O)CN1C(=O)NC(c2ccc(Br)cc2)C(C(C)=O)=C1C (centres undefined) | -1.6 | nt | nt | -4.4 | -4.2 | 8.5 | nt
CCOC(=O)c1ccc(NS(=O)(=O)c2cnc[nH]2)cc1 | 9.9 | -5.1 | -2.3 | 6.9 | nt | nt | 3639
CCN(CC)CCCN=C(C)c1c(O)n(C2CCCCC2)c(=O)[nH]c1=O | -1.5 | 3.3 | 5.8 | 2.1 | 2.6 | -0.9 | 16590*
O=C(CCC(=O)N(CC(=O)NC1CCCC1)Cc1ccc2c(c1)OCO2)Nc1ccccn1 | 6.0 | -61.5 | -6.1 | -6.1 | nt | nt | 4353
Cc1cc2cc(CNC(=O)Cc3ccc([N+](=O)[O-])cc3)ccc2n1C | 2.8 | -14.6 | 1.2 | 3.3 | -0.3 | 3.3 | 2033
